# Bioassay records: PubChem, several laboratories
# Yeast UUG start – yeast start codon fidelity modulation | S. cerevisiae UUG-firefly luciferase reporter, luminescence/redox ratio | activity score, % at 18.7 µM | actives 0.13% (n = 350,000) | AID 602363;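 active = replicate mean at a twofold rise or more, about +100% in these data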;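 also: firefly luciferase made from a UUG start codon reports start codon fidelity; reporter light over untreated wells divided by growth signal over untreated wells; some hits fall short of that in this replicate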
# CSC inhib – cancer stem cell inhibition | actives 1.1% (n = 300,000) | inhibition, % at 7.5 µM | cancer stem cell-like cells viability, luminescence;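 active = mean at 75% or more and at least half the replicates too; tested in HMLE shEcad cells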;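 also: 0% = median of negative and 100% = median of positive control wells; the first replicate is given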
# HIV Env fusion – blocks HIV Env-driven cell-cell fusion. HeLa-JRFL Env/CEM21 cell fusion, luciferase. inhibition, % at 12.3 µM. actives 1.1% (n = 360,000). AID 651610;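 active = mean replicate inhibition score of at least 50 and every replicate individually at or above 50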;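 also: 0% = plate neutral controls and 100% = maraviroc near 300 nM; one replicate is shown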
# MT1-MMP act inh – blocks activation of human MT1-MMP; GFP/RFP ratio change, % at 20 µM; HT1080 RFP-PRO-GFP cells, GFP/RFP ratio fluorescence, overnight; percent of plate control window, DMSO zero; actives 0.061% (n = 360,000);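 active = GFP/RFP ratio change of at least 30% with cell ATP level not reduced by more than half and red fluorescence within 50% of control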; also: strong numbers were not always called active
#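 Assay system: HT1080 RFP-PRO-GFP cells | Dosing: 20 µM single dose, 1% DMSO | Incubation: Cells overnight before dosing, compound overnight, 37 °C, 5% CO2 | Evaluation: GFP/RFP fluorescence ratio | Control set: DMSO-only wells and HT1080 RFP-L50D-GFP cell wells as references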
# Rce1 inhib – inhibitors of yeast Ras-converting enzyme; yeast membranes, quenched prenylated peptide cleavage fluorescence; calls only; actives 0.27% (n = 290,000); AID 2563;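 active = fall in fluorescence gain of 50% or more versus controls, with final raw signal at or below 3038400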;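 also: plate controls were neutral control wells for no effect and wells lacking membranes for full effect; tested at 10 µM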
# Target sequence (Q03530 whole entry, looked up): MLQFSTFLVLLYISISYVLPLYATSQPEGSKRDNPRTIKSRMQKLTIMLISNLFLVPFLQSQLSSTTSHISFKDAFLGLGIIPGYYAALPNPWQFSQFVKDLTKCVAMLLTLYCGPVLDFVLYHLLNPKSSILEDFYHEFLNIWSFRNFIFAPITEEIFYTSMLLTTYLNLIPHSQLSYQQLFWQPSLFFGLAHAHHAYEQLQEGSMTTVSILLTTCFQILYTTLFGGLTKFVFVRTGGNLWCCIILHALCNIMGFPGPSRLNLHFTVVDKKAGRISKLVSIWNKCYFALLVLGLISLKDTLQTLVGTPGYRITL
# eIF4H FP inh – inhibitors of RNA binding by human eIF4H; Q15056; eIF4H fluorescence polarization binding assay; inhibition, % at 35 µM; actives 0.94% (n = 290,000); AID 2012;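 active = 50% or more with normal probe brightness, or confirmed in later tests; about a fifth of its hits are not listed in these tables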;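 also: calls also rest on retests at 20 µM and on dose response follow-up; 0% = protein and probe with vehicle and 100% = probe without protein; strong numbers were not always called active; many hits fall short of the cut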
# PABP polyA inh – blocks human PABP binding to poly(A) RNA. actives 1% (n = 290,000). inhibition, % at 35 µM. AID 2014. P11940. fluorescence polarization;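 active = 50% or more with normal probe brightness, or confirmed in later tests; about a fifth of its hits are not listed in these tables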;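 also: calls also rest on retests at 20 µM and on dose response follow-up; controls were probe without protein and protein plus probe with vehicle; some compounds called inactive have numbers as strong as hits; many hits fall short of the cut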
# eIF4H FP inh retest – recorded beside eIF4H FP inh, whose call it bears; inhibition, %; compound at 20 µM; confirmation average;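 mean of two retest wells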
# PABP polyA inh retest – also measured in PABP polyA inh; calls as there; inhibition, %; compound at 20 µM; confirmation repeats;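 mean of two retest wells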
# MT1-MMP act inh RFP – further read-out of MT1-MMP act inh, marked with its call; RFP signal change, %; measured here: RFP expression control read;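 0 = vehicle wells; hits needed this value within 50% of zero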
# Numbers without * were called inactive; i = inactive; nt = not tested or not shown.
SMILES,Yeast UUG start,CSC inhib,HIV Env fusion,MT1-MMP act inh,MT1-MMP act inh RFP,Rce1 inhib,eIF4H FP inh,PABP polyA inh,others
NC(COCc1ccccc1)c1csc(Nc2cc(NCCCO)ncn2)n1 (centres undefined),-17.3,nt,5.2,-1.4,-3.7,nt,nt,nt,
Cc1cc(NC(=S)N(CCCN2CCN(C)CC2)Cc2ccco2)ccc1Cl,nt,nt,-21.3,-0.5,-1.5,i,7.5,0.3,
COc1ccc(S(=O)(=O)CC(=O)c2cc3cccc(C)c3oc2=O)cc1,-23.5,-5.3,nt,-0.7,1.8,i,-4.4,3.2,
O=C(COC(=O)c1ccccc1)NCC1CCCO1 (centres undefined),-3.0,nt,nt,8.7,6.4,i,-0.9,8.2,
O=C(CSc1cc(Cl)ccc1Cl)NCC1CCCO1 (centres undefined),-10.5,-1.3,14.1,-5.2,-0.1,i,-7.3,6.8,
CCOC(=O)C1(Cc2ccccc2)CCN(Cc2ccc(COC)o2)CC1,6.1,1.7,14.1,-4.8,-2.9,i,1.7,0.9,
CCc1ccccc1-n1ncc(C(=O)Nc2ccc(OC)cc2)c1C,-19.8,nt,-55.1,4.5,-5.9,nt,nt,nt,
CCOc1ccc(C(=O)Nc2ncccc2Cl)cc1,nt,0.1,-11.4,-1.7,1.0,i,-8.2,-0.4,
CC(OC(=O)c1nsc(Cl)c1Cl)C(=O)NCc1cccs1 (centres undefined),-6.8,-15.2,-36.7,0.5,-8.8,nt,-2.2,2.1,
COC(=O)C1=C(COc2ccc(F)cc2)NC(=O)NC1c1ccc(C)cc1C (centres undefined),-5.5,nt,nt,-0.9,-6.8,nt,5.3,0.2,
COc1ccc(OC)c(-n2c(C)cc(/C=C3\C(=N)N4N=C(CC(=O)N5CCOCC5)SC4=NC3=O)c2C)c1,-4.5,16.4,7.3,-6.3,2.5,i,-1.3,4.8,
CCCCCCCCCCCCOC(=O)C[N+](C)(C)C,nt,44.5,10.7,nt,nt,i,0.0,22.1,
O=C(Nc1ccc(Cl)cc1)NC1CCCc2ccccc21 (centres undefined),-9.7,-11.4,nt,-0.9,0.2,i,2.8,-2.0,
Clc1cccc(Cl)c1-c1noc(-c2ccno2)n1,-23.1,-7.2,0.3,-2.7,-3.6,nt,-4.5,5.4,
COc1ccc(N2CCCC2)c(NC(=O)c2ccc(Br)o2)c1,-15.8,4.9,-0.6,-8.9,-2.8,i,15.7,10.0,
COc1cccc(C(=O)Nc2ccccc2-c2ccccc2)c1,-11.8,-3.6,-2.9,4.9,-0.1,nt,nt,nt,
c1cnc(N2CCN(c3cnccn3)CC2)nc1,nt,-4.8,-12.6,2.8,-1.3,i,-2.3,0.1,
Cc1ccc(S(=O)(=O)N2CCCCC2)cc1NC(=O)Cn1c(=O)cnc2ccccc21,nt,-9.5,59.1*,-2.8,-4.7,i,0.1,-9.6,
Cc1ccccc1NC(=O)CSc1nnc(Cc2ccccc2)c(=O)n1N,-25.2,-8.6,-7.1,-0.9,-1.4,i,nt,nt,
CC(C)(C)C(=O)Nc1cccc(-c2cc(-c3c(Cl)cccc3Cl)no2)c1,-5.3,45.8,7.0,0.9,-3.2,i,-1.7,4.5,
Fc1ccc2nc(N3CCOCC3)sc2c1,1.7,-8.0,-12.8,-1.9,1.1,i,-9.0,-4.9,
COc1ccccc1OCC(=O)NCC1CCCN(C(=O)c2ccccc2SC)C1 (centres undefined),8.2,-4.3,7.7,-2.2,-2.9,i,-17.0,0.8,
COC(=O)CC1C(=O)NCCN1C(=O)c1ccc(Cl)cc1 (centres undefined),-1.6,29.2,8.9,2.6,-4.4,i,-4.7,12.5,
COc1ccc(C(=O)N/N=C(/C)c2ccc(N3CCCCC3)cc2)cc1,nt,nt,-84.7,6.5,3.2,i,0.4,-12.8,
COc1ccc2[nH]c3c(=O)n(CCc4ccccc4)cnc3c2c1,nt,-15.1,-57.7,-1.9,-3.2,i,-5.7,4.9,
O=C(CN1CCCC1)Nc1ccc(NC(=O)Nc2ccccc2Cl)cc1,-14.4,-2.0,nt,4.3,2.4,i,-9.1,-6.5,
N#Cc1c(N2CCCC(O)C2)nc(N)c2c(N)nc3c(c12)CC(=O)N3C12CC3CC(CC(C3)C1)C2 (centres undefined),-17.0,72.4,-26.5,-27.1,2.8,i,90.7*,62.3*,eIF4H FP inh retest=63.7*;PABP polyA inh retest=63.4*
C=CCNc1nc(C(=O)OCC(=O)c2ccc(C)c([N+](=O)[O-])c2)cs1,-6.2,7.4,10.0,-0.6,3.4,i,-8.2,-1.0,
CCN(CC(=O)Nc1c(F)cccc1F)C(=O)c1cc2c(cc1Cl)N1CCCCCC1=NS2(=O)=O,nt,-1.2,-8.7,-1.5,1.9,i,nt,nt,
Cc1ccc(C)c(Cn2nnc3c(=O)[nH]c(C4CCCN(C(=O)C5CCCCC5)C4)nc32)c1 (centres undefined),nt,-14.5,15.5,-1.9,-3.9,i,-6.8,0.2,

# The final 4 compounds of the part before are carried over, then new ones follow.
SMILES,Yeast UUG start,CSC inhib,HIV Env fusion,MT1-MMP act inh,MT1-MMP act inh RFP,Rce1 inhib,eIF4H FP inh,PABP polyA inh,others
N#Cc1c(N2CCCC(O)C2)nc(N)c2c(N)nc3c(c12)CC(=O)N3C12CC3CC(CC(C3)C1)C2 (centres undefined),-17.0,72.4,-26.5,-27.1,2.8,i,90.7*,62.3*,eIF4H FP inh retest=63.7*;PABP polyA inh retest=63.4*
C=CCNc1nc(C(=O)OCC(=O)c2ccc(C)c([N+](=O)[O-])c2)cs1,-6.2,7.4,10.0,-0.6,3.4,i,-8.2,-1.0,
CCN(CC(=O)Nc1c(F)cccc1F)C(=O)c1cc2c(cc1Cl)N1CCCCCC1=NS2(=O)=O,nt,-1.2,-8.7,-1.5,1.9,i,nt,nt,
Cc1ccc(C)c(Cn2nnc3c(=O)[nH]c(C4CCCN(C(=O)C5CCCCC5)C4)nc32)c1 (centres undefined),nt,-14.5,15.5,-1.9,-3.9,i,-6.8,0.2,
CCCN(CC(=O)Nc1ccccc1C)C(=O)c1ccc(=O)n(Cc2ccccc2)n1,-7.0,4.5,nt,0.9,-4.3,i,nt,nt,
CC(=O)Nc1ccc(OC(=O)c2cccs2)cc1,-3.5,-8.8,-60.9,11.1,3.5,i,-5.3,-7.0,
O=C1CCC2(CC1)NC(=O)N(c1ccccc1)N2,nt,-11.5,1.3,2.0,2.0,i,17.7,9.1,
c1coc(CNc2c3c(nc4ccccc24)CCC3)c1,-14.7,-4.0,75.2*,-3.3,4.7,i,45.0,60.8,eIF4H FP inh retest=48.7;PABP polyA inh retest=39.9
C=CCOc1ccc(/C=C/C(=O)OCC(=O)NCC2CCCCC2)cc1,-9.0,-12.8,-230.2,1.5,-0.2,i,nt,nt,
CCC1(CC)Cc2ccccc2-c2nc(NCCO)[nH]c(=O)c21,4.1,-10.4,20.8,8.8,4.2,i,8.2,17.0,
COC(=O)C1=C(C)NC(=O)CC1c1ccc(F)c(Br)c1 (centres undefined),0.3,-4.7,nt,12.5,4.0,i,-2.6,0.4,
O=C(Cc1ccc([N+](=O)[O-])cc1)Nc1cccnc1,-18.8,-4.1,-5.2,-1.3,-5.0,nt,-10.6,0.6,
COc1ccccc1N=Nc1c(C)[nH][nH]c1=O,-15.5,9.1,0.0,10.9,0.8,i,-3.2,-5.1,
O=C1CSc2ccc(S(=O)(=O)N3CCN(c4ccccc4)CC3)cc2N1,-18.0,5.9,0.4,4.0,0.4,i,-3.9,0.7,
CCOC(=O)C(NC(C)=O)C(=O)O (centres undefined),-2.3,2.6,nt,3.8,10.1,i,-18.9,-2.9,
COc1cccc(NC(=O)CN(C)C(=O)c2cc(-c3ccc(F)cc3)nc3ccccc23)c1,3.2,6.9,27.3,6.6,-1.8,i,nt,nt,
O=C(Nc1ccc2nc(-c3ccccc3)[nH]c2c1)c1cccs1,5.8,23.9,nt,6.6,-2.8,i,-3.2,4.4,
O=C(OCc1c(F)cccc1Cl)c1cc([N+](=O)[O-])ccc1N1CCOCC1,-14.9,0.1,nt,-5.0,-8.3,i,nt,nt,
O=C(CN1C(=O)NC2(CCCCCC2)C1=O)c1ccc(Cl)s1,-0.1,-11.0,-5.0,0.6,5.8,i,nt,nt,
CCOC(=O)N1CCN(C(=O)C(NC(=O)C2CCC(C)CC2)C(C)C)CC1 (centres undefined),-7.0,-9.5,-49.6,2.5,1.9,nt,-14.1,-3.1,
CCOc1ccccc1Nc1nc2ccc(C)cc2n2cnnc12,-4.8,nt,11.7,-5.7,0.5,i,1.6,3.9,
O=C(NCc1n[nH]c(=S)n1-c1cccc(C(F)(F)F)c1)c1ccc(S(=O)(=O)N2CCCCC2)cc1,-5.0,-3.7,-13.9,2.4,2.5,nt,-7.8,0.9,
CSc1ccccc1NC(=O)CN(c1cc(C)cc(C)c1)S(C)(=O)=O,-2.0,5.1,2.4,1.5,-3.5,i,6.8,-0.8,
CN(C(=O)c1nn(C)c2c1CS(=O)(=O)c1ccccc1-2)c1cccc(Cl)c1,-9.3,-4.5,7.3,-1.4,3.1,i,nt,nt,
C=CCOc1ccc(C2/C(=C(\O)c3ccc4c(c3)CC(C)O4)C(=O)C(=O)N2CCN2CCOCC2)cc1OCC (centres undefined),-16.1,-4.0,4.5,-5.1,-0.6,i,2.4,7.9,
Cc1cc(=O)n(Cc2ccco2)c(=S)[nH]1,-16.0,nt,19.7,4.3,2.0,nt,nt,nt,
CN(C)c1ccc(C=NNC(=S)Nc2ccc(F)cc2)cc1,-17.6,nt,-108.5,6.2,-0.2,nt,nt,nt,
O=C(OCC(=O)N1CCc2ccccc21)c1ccccc1,-11.0,-7.6,nt,2.8,4.7,i,0.8,-2.0,
COc1cc(-c2cc(C(=O)Nc3cc(S(=O)(=O)N4CCOCC4)ccc3O)c3ccccc3n2)cc(OC)c1OC,-8.4,-17.8,nt,14.6,-10.5,nt,nt,nt,
O=C(NNC1=Nc2ccccc2SC1)c1ccccc1F,nt,nt,-1.7,0.0,-27.7,i,16.0,5.7,
CC(C)N1CCC(N2CCN(C3CCCC3)CC2CCO)CC1 (centres undefined),nt,-2.0,-7.0,0.9,1.9,i,2.9,0.3,
CN(C)CC/C=C1\c2ccc(F)cc2Sc2cc(F)c(Cl)cc21,-7.6,82.7*,6.7,-5.0,-4.0,i,nt,nt,
CCOC(=O)c1sc(C)c2c(=O)n(CCc3ccccc3)nnc12,-9.1,4.7,nt,3.4,3.4,i,1.4,-6.3,
Cc1ccc(-n2nc3c(c2NC(=O)c2ccco2)CS(=O)(=O)C3)cc1,-12.3,-28.1,2.2,-2.2,3.5,i,nt,nt,
CN(C)c1cccc(C(=O)n2cc(C(=O)c3cc(F)ccc3O)cn2)c1,-15.4,nt,nt,-6.2,-6.8,i,4.7,4.7,
O=S(=O)(c1ccc(Cl)cc1)N1CCN(Cc2c[nH]c3ccccc23)CC1,6.4,25.7,24.5,-3.8,-5.0,i,-6.9,-10.8,
O=C(O)C(Cc1ccccc1)N1C(=O)/C(=C/c2cccnc2)SC1=S (centres undefined),7.7,-3.2,16.8,-1.1,1.2,i,8.7,8.1,
CCCn1nc(C(=O)N(C)CC(=O)Nc2ccc(OCC)c(OCC)c2)c2ccccc2c1=O,-20.4,-2.0,nt,-5.5,-1.2,nt,nt,nt,
N#CC(C(=O)c1ccccc1)=C1SCCS1,-17.7,-13.6,-2.7,3.2,-3.3,i,-11.0,-4.2,
COc1cc(OC)cc(C(=O)NC(C)c2cnn(-c3ccccc3C)c2C)c1 (centres undefined),nt,-3.2,1.8,-2.5,-1.9,i,-5.4,3.6,

# Random draw from the library. About 2.9% of those tested had a hit in this group.
